Yeast UUG start – modulators of yeast start codon fidelity, primary screen, whole organism, S. cerevisiae, single point, plate reader; S. cerevisiae UUG-firefly luciferase reporter, luminescence/redox ratio; activity score, % at 18.7 µM; hit rate 0.13% among 350,000; AID 602363, 2012;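 active means replicate mean at a twofold rise or more, about +100% in these data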;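 further: firefly luciferase made from a UUG start codon reports start codon fidelity; reporter light over untreated wells divided by growth signal over untreated wells; some hits fall short of that in this replicate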
CSC inhib – cancer stem cell viability inhibitors, primary screen, luminescence | cancer stem cell-like cells viability | inhibition, % at 7.5 µM | hit rate 1.1% among 300,000 | AID 2717, 2010;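 active means mean at 75% or more and at least half the replicates too; tested in HMLE shEcad cells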;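 further: 0% = median of negative and 100% = median of positive control wells; the first replicate is given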
eIF4H FP inh – human eIF4H binding inhibitors, primary screen, translation initiation inhibitor project, biochemical, uHTS, fluorescence polarization. Eukaryotic translation initiation factor 4H (Homo sapiens), Q15056. eIF4H fluorescence polarization binding assay. inhibition, % at 35 µM. hit rate 0.94% among 290,000;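 active means 50% or more with normal probe brightness, or confirmed in later tests; about a fifth of its hits are not listed in these tables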;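 further: calls also rest on retests at 20 µM and on dose response follow-up; 0% = protein and probe with vehicle and 100% = probe without protein; strong numbers were not always called active; many hits fall short of the cut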
PABP FP inh – PABP poly(A) RNA binding inhibitors, primary screen, biochemical, fluorescence polarization, uHTS | hit rate 1% among 290,000 | Polyadenylate-binding protein 1 (Homo sapiens), P11940 | inhibition, % at 35 µM | AID 2014, 2009;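 active means 50% or more with normal probe brightness, or confirmed in later tests; about a fifth of its hits are not listed in these tables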;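 further: calls also rest on retests at 20 µM and on dose response follow-up; controls were probe without protein and protein plus probe with vehicle; some compounds called inactive have numbers as strong as hits; many hits fall short of the cut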
Target sequence (P11940 whole entry, looked up): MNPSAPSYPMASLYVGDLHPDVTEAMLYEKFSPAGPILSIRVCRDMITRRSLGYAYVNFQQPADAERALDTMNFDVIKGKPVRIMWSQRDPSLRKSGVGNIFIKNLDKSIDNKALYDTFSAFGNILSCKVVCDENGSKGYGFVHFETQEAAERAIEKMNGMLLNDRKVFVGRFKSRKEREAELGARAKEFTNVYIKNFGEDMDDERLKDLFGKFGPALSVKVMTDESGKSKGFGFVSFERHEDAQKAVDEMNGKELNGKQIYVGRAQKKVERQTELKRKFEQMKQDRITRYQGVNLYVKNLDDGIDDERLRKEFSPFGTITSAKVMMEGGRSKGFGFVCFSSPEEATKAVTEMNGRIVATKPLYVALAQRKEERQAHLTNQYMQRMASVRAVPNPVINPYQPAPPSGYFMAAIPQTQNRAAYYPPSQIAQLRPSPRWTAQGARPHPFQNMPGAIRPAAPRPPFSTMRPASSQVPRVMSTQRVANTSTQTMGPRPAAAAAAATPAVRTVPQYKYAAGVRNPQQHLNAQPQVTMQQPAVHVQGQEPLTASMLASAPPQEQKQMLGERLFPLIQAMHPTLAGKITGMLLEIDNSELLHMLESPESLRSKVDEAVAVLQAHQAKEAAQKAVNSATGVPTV
Rce1 inhib – yeast Rce1p protease inhibitors, primary screen, biochemical, fluorescence, cell-free homogeneous | AID 2563, 2010 | calls only | hit rate 0.27% among 290,000 | yeast membranes, quenched prenylated peptide cleavage fluorescence | CAAX prenyl protease 2 (Saccharomyces cerevisiae (strain ATCC 204508 / S288c)), Q03530;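 active means fall in fluorescence gain of 50% or more versus controls, with final raw signal at or below 3038400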;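 further: plate controls were neutral control wells for no effect and wells lacking membranes for full effect; tested at 10 µM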
Target sequence (Q03530 whole entry, looked up): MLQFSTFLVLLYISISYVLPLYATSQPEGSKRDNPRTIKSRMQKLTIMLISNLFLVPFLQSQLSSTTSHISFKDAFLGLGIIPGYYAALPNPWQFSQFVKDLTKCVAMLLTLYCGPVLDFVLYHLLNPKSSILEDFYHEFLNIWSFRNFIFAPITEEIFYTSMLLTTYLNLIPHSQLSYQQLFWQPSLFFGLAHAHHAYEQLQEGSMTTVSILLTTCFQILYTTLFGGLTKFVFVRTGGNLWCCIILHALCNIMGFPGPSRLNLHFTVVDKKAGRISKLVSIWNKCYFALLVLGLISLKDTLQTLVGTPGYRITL
HIV Env fusion – inhibitors of HIV-1 Env-driven cell-cell fusion, primary screen, HeLa-JRFL effector, CEM21 target cells, luciferase; inhibition, % at 12.3 µM; hit rate 1.1% among 360,000;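 active means mean replicate inhibition score of at least 50 and every replicate individually at or above 50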;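 further: 0% = plate neutral controls and 100% = maraviroc near 300 nM; one replicate is shown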
MT1-MMP act inh – blockers of MT1-MMP proenzyme processing, primary screen, HT1080 RFP-PRO-GFP cells, GFP/RFP fluorescence. GFP/RFP ratio fluorescence, overnight; percent of plate control window, DMSO zero. GFP/RFP ratio change, % at 20 µM. Matrix metalloproteinase-14 (Homo sapiens), P50281. hit rate 0.061% among 360,000;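 active means GFP/RFP ratio change of at least 30% with cell ATP level not reduced by more than half and red fluorescence within 50% of control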; further: strong numbers were not always called active
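Compound: 20 µM single dose, 1% DMSO / System: HT1080 RFP-PRO-GFP cells / Controls: DMSO and RFP-L50D-GFP cell wells / Read-out basis: GFP/RFP fluorescence ratio / Schedule: overnight compound exposure at 37 °C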
eIF4H FP inh retest – second read-out of eIF4H FP inh, no call of its own (marks repeat the call); inhibition, %; compound at 20 µM; confirmation average;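 mean of two retest wells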
PABP FP inh retest – second read-out of PABP FP inh, no call of its own (marks repeat the call); inhibition, %; compound at 20 µM; confirmation repeats;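 mean of two retest wells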
MT1-MMP act inh RFP – also measured in MT1-MMP act inh; calls as there; RFP signal change, %; measured here: RFP expression control read;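 0 = vehicle wells; hits needed this value within 50% of zero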
* = called active by the depositor; i = inactive; . = not tested or not shown; & = joins results of further samples.

SMILES	Yeast UUG start	CSC inhib	eIF4H FP inh	PABP FP inh	Rce1 inhib	HIV Env fusion	MT1-MMP act inh	MT1-MMP act inh RFP	others
CCOCCn1ccc2c(OCC(=O)Nc3ccccc3F)cccc2c1=O	-13	7	.	.	i	0	3	-1
COCC#Cc1ccc2c(c1)O[C@@H](CN(C)C(=O)Nc1ccc(OC)cc1)[C@H](C)CN([C@H](C)CO)S2(=O)=O	-4&-2	.	.	.	.	-8	3	3
CS(=O)(=O)c1cccc(C(=O)Nc2nnc(C3=COCCO3)o2)c1	.	-4	.	.	i	-4	1	4
O=C(C1=C[C@H](c2ccccc2)C[C@H](OCCCCO)O1)N1CCN(Cc2ccccc2)CC1	-12	-12	11	4	i	-4	2	-1
O=C(NCCCn1ccnc1)c1cn(Cc2ccc(F)cc2)nn1	-3	57	2	-3	i	-116	-1	0
CCCSc1nc2c(c(=O)[nH]c(=O)n2C)n1CC(O)COc1ccccc1 (configuration not stated)	.	-6	-6	5	i	7	4	-1
O=c1[nH]c2ccccc2n1C1CCCCC1	-9	-15	-7	-3	i	-9	3	-4
OCCNc1ncnc2c1ncn2[C@H]1CN(Cc2ccc(Cl)cc2)C[C@@H](CO)O1	-7	.	.	.	.	3	2	7
C=CCSC1=N/C(=C\c2cc(OC)c3c(c2)OCO3)C(=O)S1	-11	-6	57*	22	i	.	-3	11	eIF4H FP inh retest=57*;PABP FP inh retest=33
Cc1ccccc1NC(=O)CCNS(=O)(=O)c1ccc2c(c1)CCC(=O)N2	-12	3	-7	-4	i	-1	-2	2
N#Cc1ccc(-c2ccccc2)nc1SCC(=O)c1cccc(Cl)c1	-22	-16	-4	-7	i	-266	-39	2
COc1ccc(-c2nc(=S)c3c(n2Cc2cccnc2)CC(C)(C)OC3)cc1	-24	0	-8	-8	i	14	-2	3
CN(C)CCNC(=O)c1ccc(COc2ccc(Cl)cc2Cl)cc1	-1	54	0	-11	i	24	-3	-6
O=C(Nc1ccc(Cl)cc1)C1=Cc2ccccc2OC1	.	7	-5	-10	i	.	-5	-4
O=C(CCSc1nnc(-c2ccncc2)o1)Nc1ccc(Cl)cc1	-33	11	0	3	i	-24	3	1
CCCS(=O)(=O)c1c(S(=O)(=O)CCC)c2ccc(C(N)=O)cn2c1C(=O)c1ccc(OC)cc1	.	4	0	-3	i	3	-1	-2
CCOC(=O)CN(C(=O)CNC(=O)c1ccco1)C(C(=O)NC1CCCCC1)c1cccs1 (configuration not stated)	1	.	-17	-3	i	-133	1	2
O=c1cc(-c2ccccc2Cl)oc2c(Br)ccc(O)c12	-21	-7	3	2	i	-2	-2	-3
CCn1cc(C(=O)O)c(=O)c2cc(OC)ccc21	11	-25	3	4	i	-6	2	1
COc1cccc(C(C)(O)c2nc(-c3ccc(S(C)(=O)=O)cc3)cs2)c1 (configuration not stated)	-3	.	.	.	.	64*	-14	-25
O=C(NN=Cc1ccc2c(c1)OCO2)c1ccncc1	-6	.	.	.	.	-5	-6	-2
COc1ccc(NC(=O)COC(=O)Cc2cccs2)cc1Cl	15	.	.	.	.	-3	0	4
O=[N+]([O-])c1ccc(CNc2cccc(Cl)c2)s1	0	15	-3	0	i	-1	1	-3
CC1(c2ccc3c(c2)OCO3)NC(=O)N(CC(=O)NCCC2=CCCCC2)C1=O (configuration not stated)	-7	-4	-11	6	i	-1	-2	-6
CC(C)Sc1ccccc1C(=O)Nc1ccc2c(c1)n(C)c(=O)n2C	-11	-9	-2	-4	i	8	8	5
CN1CCN(C(=S)c2ccc([N+](=O)[O-])cc2)CC1	-11	.	-10	18	i	5	4	6
CCOc1ccccc1C(=O)Nc1ccc(S(=O)(=O)N2CCN(C)CC2)cc1	-2	.	10	4	i	-1	2	-3
CCN(CC)c1ccc(N)cc1S(=O)(=O)Nc1ccc(OC)cc1	-21	-15	4	0	i	8	2	1
Cc1ccc(S(=O)(=O)NC(=O)C2(C)CCN2C(=O)c2ccccc2)nc1 (configuration not stated)	-13	.	.	.	.	2	1	6
Cc1ccc(C(=O)OCC(=O)NCCNC(=O)COC(=O)c2ccc(C)o2)o1	-10	.	.	.	i	0	3	4
CCCc1cc(=O)oc2cc(C)cc(OC(C)C(=O)NCC3CCC(C(=O)O)CC3)c12 (configuration not stated)	2	-11	-7	-10	.	.	4	2
O=C(/C=C/c1ccc(N2CCCCC2)c([N+](=O)[O-])c1)c1ccc(O)cc1	0	110*	-18	9	i	-24	-8	-22
CCN(CCCNC(=O)C1CCC(=O)N1Cc1ccc(F)cc1)c1cccc(C)c1 (configuration not stated)	-6	3	8	0	i	.	10	2
Fc1ccc(Nc2ccc3ccccc3n2)c(F)c1	.	6	-11	-16	i	-279	-2	0
CCn1c(SCC(=O)C(C)(C)C)nnc1-c1cccnc1	-15	-13	-2	3	i	.	1	3
CCCNC(=O)c1ccc2c(=O)c(O)c(-c3cccc(Br)c3)[nH]c2c1	-6	125*	18	14	i	24	6	0

Reprinted from the entries so far, 16 compounds:
SMILES	Yeast UUG start	CSC inhib	eIF4H FP inh	PABP FP inh	Rce1 inhib	HIV Env fusion	MT1-MMP act inh	MT1-MMP act inh RFP	others
O=c1cc(-c2ccccc2Cl)oc2c(Br)ccc(O)c12	-21	-7	3	2	i	-2	-2	-3
CCn1cc(C(=O)O)c(=O)c2cc(OC)ccc21	11	-25	3	4	i	-6	2	1
COc1cccc(C(C)(O)c2nc(-c3ccc(S(C)(=O)=O)cc3)cs2)c1 (configuration not stated)	-3	.	.	.	.	64*	-14	-25
O=C(NN=Cc1ccc2c(c1)OCO2)c1ccncc1	-6	.	.	.	.	-5	-6	-2
COc1ccc(NC(=O)COC(=O)Cc2cccs2)cc1Cl	15	.	.	.	.	-3	0	4
O=[N+]([O-])c1ccc(CNc2cccc(Cl)c2)s1	0	15	-3	0	i	-1	1	-3
CC1(c2ccc3c(c2)OCO3)NC(=O)N(CC(=O)NCCC2=CCCCC2)C1=O (configuration not stated)	-7	-4	-11	6	i	-1	-2	-6
CC(C)Sc1ccccc1C(=O)Nc1ccc2c(c1)n(C)c(=O)n2C	-11	-9	-2	-4	i	8	8	5
CN1CCN(C(=S)c2ccc([N+](=O)[O-])cc2)CC1	-11	.	-10	18	i	5	4	6
CCOc1ccccc1C(=O)Nc1ccc(S(=O)(=O)N2CCN(C)CC2)cc1	-2	.	10	4	i	-1	2	-3
CCN(CC)c1ccc(N)cc1S(=O)(=O)Nc1ccc(OC)cc1	-21	-15	4	0	i	8	2	1
Cc1ccc(S(=O)(=O)NC(=O)C2(C)CCN2C(=O)c2ccccc2)nc1 (configuration not stated)	-13	.	.	.	.	2	1	6
Cc1ccc(C(=O)OCC(=O)NCCNC(=O)COC(=O)c2ccc(C)o2)o1	-10	.	.	.	i	0	3	4
CCCc1cc(=O)oc2cc(C)cc(OC(C)C(=O)NCC3CCC(C(=O)O)CC3)c12 (configuration not stated)	2	-11	-7	-10	.	.	4	2
O=C(/C=C/c1ccc(N2CCCCC2)c([N+](=O)[O-])c1)c1ccc(O)cc1	0	110*	-18	9	i	-24	-8	-22
CCN(CCCNC(=O)C1CCC(=O)N1Cc1ccc(F)cc1)c1cccc(C)c1 (configuration not stated)	-6	3	8	0	i	.	10	2

Next section
SMILES	Yeast UUG start	CSC inhib	eIF4H FP inh	PABP FP inh	Rce1 inhib	HIV Env fusion	MT1-MMP act inh	MT1-MMP act inh RFP	others
NS(=O)(=O)c1ccc(CCNC(=O)CSc2ncnc3ccccc23)cc1	.	-12	-8	-11	i	-11	-7	-2
COc1cccc(NC(=O)c2ccc(CN3CCN(c4ccccc4)CC3)cc2)c1	-6	-15	-10	-2	i	62*	8	-16
Cc1ccc2c(c1)C1CN(C)CCC1N2C(=O)c1cccc(S(=O)(=O)N(C)C)c1 (configuration not stated)	.	-1	-3	3	i	20	-4	-2
CCN(CC)CCn1c(-c2ccc(C)cc2)nc(=S)c2c1CC(C)(C)OC2	-28	-8	7	1	i	2	-1	4
Cc1ccc(-c2cc3nc(C)cc(N4CCN(C(=O)c5ccoc5)CC4)n3n2)cc1	-7	.	.	.	.	-35	-231	-81
O=C1[C@H]2[C@@H](c3ccc(C(F)(F)F)cc3)N[C@]3(CCCN(CC4CCCCC4)C3=O)[C@H]2C(=O)N1Cc1ccccc1	-5	.	.	.	.	2	-3	-8
Cc1ccccc1/C=N/n1c(C2CCCCC2)n[nH]c1=S	-12	5	-18	-9	i	-4	6	4
O=C(Nc1ccc(S(=O)(=O)NC2=NCCCCC2)cc1)c1ccc(Cl)c([N+](=O)[O-])c1	12	-21	.	.	.	4	-2	-2
COc1ccc(CN(CC(=O)NCc2ccc(F)cc2)C(=O)CCC(=O)Nc2cc(C)ccn2)cc1	-11	-13	1	4	i	-6	-2	-2
CCCCn1ccnc1C(=O)c1cc(S(=O)(=O)N2CCOCC2)ccc1C	-10	3	-5	2	i	44	16	-14
CCOC(=O)c1ccc(NC(=S)NCCc2ccc(OC)c(OC)c2)cc1	.	4	-2	10	i	11	1	-8
O=C(N/N=C/C(Br)=C\c1ccccc1)c1n[nH]c2c1CCC2	.	.	-9	-7	i	i	18	-1
COc1ccccc1N1CC(C(=O)OCC(=O)Nc2cc(C)on2)CC1=O (configuration not stated)	-6	.	.	.	.	1	-2	-1
c1ccc2[nH]c(CSc3nc4ccccc4o3)nc2c1	-23	-1	-15	-1	i	.	-1	-8
Cc1noc(C)c1S(=O)(=O)N(C)C[C@H]1Oc2c(NC(=O)Nc3ccccc3)cccc2C(=O)N([C@H](C)CO)C[C@@H]1C	-7	-12	.	.	.	-26	-2	-3
NC(=O)c1nsc(C(=O)N(c2cccc(F)c2)C(C(=O)NCC2CCCO2)c2ccc3ncccc3c2)c1N (configuration not stated)	0	-1	1	1	i	-2	-1	-1
CC(=O)Nc1nnc(CSCc2ccccc2F)s1	-2	18	-8	0	i	-3	3	-6
CCN(CC)C(=S)SC1=CCS(=O)(=O)C1	.	4	0	-2	i	-15	4	3
CCOC(=O)C1CCN(C(=O)COc2ccc([N+](=O)[O-])cc2)CC1	.	-5	0	3	.	-6	9	4
O=C(CN(Cc1ccccc1Cl)C(=O)c1csnn1)NCCc1ccccc1	-23	-1	-9	12	i	18	-1	2
NC(=O)c1ccc[n+](CC(=O)OCCC23CC4CC(CC(C4)C2)C3)c1	-3	-3	-6	-3	i	-29	-8	2

Screening data (PubChem)

Not all compounds are listed, so the mix of outcomes need not match the whole.
